CSC inhib = cancer stem cell inhibition; inhibition, % at 7.5 µM; AID 2717; cancer stem cell-like cells viability, luminescence; 300,000 compounds, 1.1% hits;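 active = mean at 75% or more and at least half the replicates too; inconclusive = mean and replicates disagree; tested in HMLE shEcad cells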;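 also: 0% = median of negative and 100% = median of positive control wells; the first replicate is given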
Rce1 inh = yeast Ras-converting enzyme inhibition | calls only | 290,000 compounds, 0.27% hits | Q03530 | yeast membranes, quenched prenylated peptide cleavage fluorescence;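 active = fall in fluorescence gain of 50% or more versus controls, with final raw signal at or below 3038400; inconclusive = same 50% fall but final raw signal above 3038400; inactive = fall in fluorescence gain under 50%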;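 also: plate controls were neutral control wells for no effect and wells lacking membranes for full effect; tested at 10 µM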
eIF4H inh = inhibitors of RNA binding by human eIF4H; eIF4H fluorescence polarization binding assay; inhibition, % at 35 µM; 290,000 compounds, 0.94% hits;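 active = 50% or more with normal probe brightness, or confirmed in later tests; inconclusive = above 50% with abnormal brightness, or retests that disagree; inactive = below 50% or failed in later tests; about a fifth of its hits are not listed in these tables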;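 also: calls also rest on retests at 20 µM and on dose response follow-up; 0% = protein and probe with vehicle and 100% = probe without protein; strong numbers were not always called active; many hits fall short of the cut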
Yeast UUG start = modulators of start codon recognition fidelity in yeast. AID 602363. activity score, % at 18.7 µM. 350,000 compounds, 0.13% hits. S. cerevisiae UUG-firefly luciferase reporter, luminescence/redox ratio;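 active = replicate mean at a twofold rise or more, about +100% in these data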;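 also: firefly luciferase made from a UUG start codon reports start codon fidelity; reporter light over untreated wells divided by growth signal over untreated wells; some hits fall short of that in this replicate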
HIV Env fusion = blocks HIV Env-driven cell-cell fusion; inhibition, % at 12.3 µM; 360,000 compounds, 1.1% hits; AID 651610; HeLa-JRFL Env/CEM21 cell fusion, luciferase;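 active = mean replicate inhibition score of at least 50 and every replicate individually at or above 50; inconclusive = only one of the two criteria met; inactive = mean below 50 and not all replicates reaching 50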;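 also: 0% = plate neutral controls and 100% = maraviroc near 300 nM; one replicate is shown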
PABP FP inh = PABP-poly(A) binding inhibition; PABP-poly(A) RNA binding, fluorescence polarization; P11940; AID 2014; 290,000 compounds, 1% hits; inhibition, % at 35 µM;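 active = 50% or more with normal probe brightness, or confirmed in later tests; inconclusive = above 50% with abnormal brightness, or retests that disagree; inactive = below 50% or failed in later tests; about a fifth of its hits are not listed in these tables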;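 also: calls also rest on retests at 20 µM and on dose response follow-up; controls were probe without protein and protein plus probe with vehicle; some compounds called inactive have numbers as strong as hits; many hits fall short of the cut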
Target sequence (P11940 whole entry, looked up): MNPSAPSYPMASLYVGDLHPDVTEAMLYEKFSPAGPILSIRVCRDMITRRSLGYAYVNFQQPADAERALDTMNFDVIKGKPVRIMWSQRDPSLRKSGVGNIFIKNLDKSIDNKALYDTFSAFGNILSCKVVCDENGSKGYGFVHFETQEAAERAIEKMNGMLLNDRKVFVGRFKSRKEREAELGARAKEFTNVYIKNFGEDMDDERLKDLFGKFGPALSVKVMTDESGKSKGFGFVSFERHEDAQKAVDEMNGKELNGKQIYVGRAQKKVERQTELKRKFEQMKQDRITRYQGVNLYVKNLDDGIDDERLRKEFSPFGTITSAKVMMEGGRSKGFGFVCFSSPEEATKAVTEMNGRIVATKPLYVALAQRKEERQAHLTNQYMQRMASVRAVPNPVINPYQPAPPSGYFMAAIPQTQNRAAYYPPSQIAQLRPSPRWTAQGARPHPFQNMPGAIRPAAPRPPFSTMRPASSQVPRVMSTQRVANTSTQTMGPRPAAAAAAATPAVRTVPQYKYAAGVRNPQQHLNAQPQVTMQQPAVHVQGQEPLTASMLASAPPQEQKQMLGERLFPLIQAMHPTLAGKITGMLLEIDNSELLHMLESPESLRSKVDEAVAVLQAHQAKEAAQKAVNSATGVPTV
MT1-MMP act inh = blocks activation of human MT1-MMP; P50281; HT1080 RFP-PRO-GFP cells, GFP/RFP ratio fluorescence, overnight; percent of plate control window, DMSO zero; GFP/RFP ratio change, % at 20 µM; 360,000 compounds, 0.061% hits; AID 651647;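 active = GFP/RFP ratio change of at least 30% with cell ATP level not reduced by more than half and red fluorescence within 50% of control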; also: strong numbers were not always called active
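Assay system: HT1080 RFP-PRO-GFP cells | Dosing: 20 µM single dose, 1% DMSO | Incubation: Cells overnight before dosing, compound overnight, 37 °C, 5% CO2 | Evaluation: GFP/RFP fluorescence ratio | Control set: DMSO-only wells and HT1080 RFP-L50D-GFP cell wells as references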
eIF4H inh retest = also measured in eIF4H inh; calls as there; inhibition, %; compound at 20 µM; confirmation average;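 mean of two retest wells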
PABP FP inh retest = further read-out of PABP FP inh, marked with its call; inhibition, %; compound at 20 µM; confirmation repeats;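 mean of two retest wells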
MT1-MMP act inh RFP = also measured in MT1-MMP act inh; calls as there; RFP signal change, %; measured here: RFP expression control read;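 0 = vehicle wells; hits needed this value within 50% of zero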
Starred values were filed as active, the others as inactive; i = inactive; ? = inconclusive; nt = no result given; & = joins results of further samples. Rows were taken by chance (roughly 2.9% active in at least one column).

SMILES	CSC inhib	Rce1 inh	eIF4H inh	Yeast UUG start	HIV Env fusion	PABP FP inh	MT1-MMP act inh	MT1-MMP act inh RFP	others
Cc1c(Br)c([N+](=O)[O-])nn1CC(=O)NCC1CCCO1 (stereo unspecified)	-6	i	-4	nt	3	1	2	3
C/C(=N/NC(=O)c1ccc(Br)o1)c1cccc(NC(=O)c2ccc(C)o2)c1	0	i	3	7	-18	7	3	8
COc1cc(NC(=O)c2ccccc2)c(OC)cc1NC(=O)CN1CCCCC1	-9	i	-15	-16	-37	-6	6	1
COc1ccccc1-c1nc(-c2ccccc2)nc(N2CCN(C)CC2)c1C#N	1	i	0	nt	15	21	-5	-6
O=C(O)CC1(CC(=O)Nc2cc(C(F)(F)F)cc(C(F)(F)F)c2)CCCCC1	46	i	-3	-4	5	-4	-1	-3
Cc1cc(C)nc(NC(=O)CN2C(=O)c3ccccc3C2=O)n1	-10	i	-8	-20	-65	-9	-2	-1
Cc1ccc(-c2csc3nnc(SCC(=O)Nc4nsc(-c5ccccc5)n4)n23)cc1	-23	i	-8	-12	44	-14	5	-6
O=C(NC(C(=O)NCCN1CCOCC1)C12CC3CC(CC(C3)C1)C2)C1CCCCC1 (stereo unspecified)	7	i	0	-6	29	1	1	2
CC(=O)N1CCN(C(=S)c2ccc(N(C)C)cc2)CC1	-5	i	5	-13	nt	-3	-1	5
COc1ccc(S(=O)(=O)Nc2ccc3c(c2)OCO3)cc1OC	-12	i	3	-22	-26	3	0	-1
Cc1ccc2c(cnn2C(=O)CCC(=O)NC2CCCCC2)c1	-4	i	13	-19	2	-4	-1	3
O=C(CC1SC(=Nc2ccccc2F)N(CCN2CCOCC2)C1=O)Nc1ccc(F)cc1F (stereo unspecified)	-10	i	-3	nt	-4	3	3	-1
CCOc1ccc(N(CC(=O)Nc2c(C)cc(C)cc2C)C2=NC3CS(=O)(=O)CC3S2)cc1 (stereo unspecified)	nt	nt	nt	-4	12	nt	5	4
Cc1cc(C)c(S(=O)(=O)N2CCCCC2CCNC(=O)C(=O)NCc2ccccn2)c(C)c1 (stereo unspecified)	-18	i	nt	-13	10	nt	7	-3
C/C(CC(=O)Nc1cccc2c1CCCC2)=N\NC(=O)Cc1ccccc1	nt	i	-3	-5	6	-6	5	5
CC(=O)Nc1ccc(NC(=O)COC(=O)[C@@H](NC(=O)c2ccc(F)cc2)C(C)C)cc1	-14	i	-7	nt	13	66	4	3	eIF4H inh retest=20;PABP FP inh retest=27
COC(=O)C1CCC(=S)N1C(=O)c1ccccc1 (stereo unspecified)	-6	i	-11	-18	0	0	-5	-1
COc1ccc(CCNC(=O)CS(=O)Cc2nc(-c3ccc(C)cc3)oc2C)cc1OC (stereo unspecified)	-5	i	2	0	-16	2	1	-2
Cc1ccc(CNC(=O)C2CCN(c3nc(C)cc(C)n3)CC2)cc1	1	i	nt	-16	4	nt	-4	-5
COC(c1ccccc1)c1nnc(CCC(=O)NCc2ccc3ncccc3c2)o1 (stereo unspecified)	-8	i	0	nt	-9	13	-6	1
O=C(COC(=O)c1cccc([N+](=O)[O-])c1)Nc1ccc(Cl)cn1	nt	i	nt	nt	-10	nt	-1	0
CN(C(=O)CSc1ncnc2ccccc12)C1CCS(=O)(=O)C1 (stereo unspecified)	-11	nt	nt	-13	6	nt	-1	-2
CC(=O)N1CCN(C(=O)c2cccc(S(=O)(=O)N3CCN(c4ccc(F)cc4)CC3)c2)CC1	-7	i	nt	nt	nt	nt	-1	-4
COc1ccc(-c2nc(SCC(=O)N(CC(C)C)c3c(N)n(Cc4ccccc4)c(=O)[nH]c3=O)n[nH]2)cc1	-1	nt	nt	nt	-5	nt	-3	3
CCOC(=O)c1ccccc1NC(=S)N1CCC(C(N)=O)CC1	-21	i	-5	nt	-7	-10	-2	2

Quoted from the entries so far (two entries):
SMILES	CSC inhib	Rce1 inh	eIF4H inh	Yeast UUG start	HIV Env fusion	PABP FP inh	MT1-MMP act inh	MT1-MMP act inh RFP	others
Cc1c(Br)c([N+](=O)[O-])nn1CC(=O)NCC1CCCO1 (stereo unspecified)	-6	i	-4	nt	3	1	2	3
C/C(=N/NC(=O)c1ccc(Br)o1)c1cccc(NC(=O)c2ccc(C)o2)c1	0	i	3	7	-18	7	3	8

Next records follow:
SMILES	CSC inhib	Rce1 inh	eIF4H inh	Yeast UUG start	HIV Env fusion	PABP FP inh	MT1-MMP act inh	MT1-MMP act inh RFP	others
Cc1ccc(CCNC(=O)C2CCC(CNc3c(N4CCC(C)CC4)c(=O)c3=O)CC2)cc1 (stereo unspecified)	-9	i	8	-13	6	11	4	-7
O=C(NNC(=O)c1ccccc1Cl)c1cccs1	-15	i	4	10	-70	-2	0	0
O=C(CN1C(=O)NC2(CCCCC2)C1=O)NCCc1ccc(Cl)cc1Cl	-12	nt	nt	1	21	nt	2	-1
COc1ccc(OCc2cc(C(=O)N3CCCCCCC3)no2)c(Cl)c1	40	i	-7	-2	-8	10	0	2
O=C(Nc1ccccc1C(=O)N1CCCCCC1)c1cccc([N+](=O)[O-])c1	5	i	-7	-2	nt	2	5	4
COc1ccc(S(=O)(=O)N2CCC(C(=O)Nc3ccc(F)cc3)CC2)c2cccnc12	-4	i	-4	-8	-1	?	-1	0
COc1ccc(Cc2c(O)nc(SCC(=O)N3CCOCC3)[nH]c2=O)cc1	-15	i	1	-27	-1	-5	4	5
NC(=O)COc1ccc2cc(-c3ccc(F)cc3)c(=O)oc2c1	-7	nt	25	-6	-138	6	0	-1
C[C@H]1Oc2ccccc2C(=O)C1C(=O)c1ccccc1 (stereo partly specified)	0	i	nt	nt	-11	nt	4	2
CC(C)=CCC/C(C)=C/CNC(=O)C[C@H]1C[C@H](C(=O)N2CCCCC2)[C@@]2(CCc3ccccc3)c3[nH]c4ccc(Cl)cc4c3CCN2C1=O	nt	nt	nt	-10	54	nt	-6	-5
COc1cc(NC(=O)C2CCCCC2)c2ncccc2c1	8	i	6	-4	nt	1	1	6
COc1ccccc1NC(=O)N1CCc2[nH]c3ccc(Cl)cc3c2C1	48	i	26	-9	nt	21	-2	-4
Cc1cc(C)c(C(=O)Nc2ccccc2)c(CC(C)(C)C(=O)O)c1	-7	i	-9	nt	6	-1	-1	1
CNc1nc(Oc2ccc(C(=O)OC)cc2)nc(SC)n1	2	i	-8	-9	nt	-1	-1	-6
CCC1=NNC(=O)C(CC(=O)Nc2ccccc2)c2cc(OC)c(OC)cc21 (stereo unspecified)	-2	i	0	-8	6	0	-1	0
OCCSc1nncn1/N=C/c1c[nH]c2ccccc12	-6	i	-14	nt	nt	-4	0	0
CC(CC(=O)N(C)CC(=O)Nc1ccc(N2CCOCC2)cc1)c1ccccc1 (stereo unspecified)	-5	i	nt	-19	-3	nt	4	-3
O=C(CCNS(=O)(=O)c1ccccc1)N1CCN(c2ccccc2)CC1	-10	i	4	-41	5	2	0	5
CC(C)(C)OC(=O)N1CCCC(C(=O)Nc2cccc(C(=O)N3CCOCC3)c2)C1 (stereo unspecified)	nt	nt	nt	-7	-6	nt	3	4
COCCN(C(=O)COC(=O)CCC(=O)c1ccc(C)cc1)c1c(N)n(Cc2ccccc2)c(=O)[nH]c1=O	1	i	8	1	nt	6	-1	5
COc1ccc(N2CCN(c3nc4ccccn4c(=O)c3/C=C(\C#N)S(=O)(=O)c3ccccc3)CC2)cc1	-7	i	-8	-6	0	7	-10	-3
CC1=NN(c2ccccc2)C(=O)/C1=C\c1c(C)[nH]n(-c2ccccc2)c1=O	-2	i	-14	-21	9	8	7	-2
COc1ccccc1C(=O)COC(=O)CCCN=C1NS(=O)(=O)c2ccccc21	-13	i	nt	nt	-3	nt	2	3
O=C(Nc1ccc(S(=O)(=O)Nc2ncccn2)cc1)c1cnc(Cl)c(Cl)c1	-3	i	4	nt	-15	-9	6	0
Cc1cc(NC(=O)/C=C/C(=O)N(CC(=O)NC2CCCC2)c2ccc(F)cc2)no1	11	i	-8	-9	10	-7	0	1

Carrying on.
SMILES	CSC inhib	Rce1 inh	eIF4H inh	Yeast UUG start	HIV Env fusion	PABP FP inh	MT1-MMP act inh	MT1-MMP act inh RFP	others
Cc1cc(C)c(C)c(OCC(=O)O/N=C(\N)c2ccncc2)c1	-5	i	-5	24	-2	5	-2	-8
Nc1c(C(=O)N2CCOCC2)sc(=S)n1-c1ccccc1	-3	i	-6	-25	-28	10	4	1
CC(=O)NCCNC(=O)c1ccc2c(c1)S(=O)(=O)c1ccccc1C2=O	2	nt	-5	16	0	1	0	2
C=CCNC(=O)C1CC1(c1cccc(C)c1)c1cccc(C)c1 (stereo unspecified)	-7	i	nt	-12	5	nt	7	-5
O=C(NCc1ccc(Cl)cc1)C1CCCO1 (stereo unspecified)	-9	i	-5	-20	2	-12	0	2
CCCCCCSc1ccc(-c2nc3ccccn3c2NCCCC)cc1	86*	i	nt	-30	33	nt	0	-21
CCc1nnc(NC(=S)Nc2ccccc2)s1	-11	nt	1	nt	-58	-4	6	3
CCc1c(O)nc(SCC(=O)c2ccccc2)n(-c2ccccc2)c1=O	-3	i	-3	-16	5	-12	4	1
C=CCn1c(SCC(=O)N2CCN(c3ccccc3)CC2)nnc1-c1ccco1	-11	i	-5	-5	20	-8	-1	-9
Cc1cccc(C)c1OCc1cc(C(=O)N2CCC(c3ccccc3)CC2)no1	58	i	-6	-2	2	6	0	1
COc1ccc(OC)c(CN2CCN(C(=O)c3cccs3)CC2)c1	-1	i	6	1	-7	11	3	1
Oc1ccc(-c2nc3cnccn3c2Nc2ccc3c(c2)OCCO3)cc1	nt	i	-10	7	25	1	7	-2
CSCCC(NC(=O)c1ccccc1Cl)C(=O)N(C)CC(=O)Nc1ccc(N2CCOCC2)cc1 (stereo unspecified)	nt	i	nt	-5	-9	nt	4	4
O=C(CSc1n[nH]c(=O)[nH]c1=O)N/N=C/C=C\c1ccccc1	20	i	2	-6	3	-1	2	6
CCCCN1C(=O)C2(NNc3ccccc3O2)c2ccccc21 (stereo unspecified)	11	i	10	3	nt	19	-116	9
CSCCC(NC(=O)c1cc(CC(C)C)oc1C)C(=O)O (stereo unspecified)	2	i	-11	-15	nt	16	-1	0
Cc1ccc(OCC(O)CN2CCN(Cc3ccc4c(c3)OCO4)CC2)c(C)c1 (stereo unspecified)	26	i	-9	-13	14	15	1&7	-2&4
O=C(NCCCn1ncc2ccccc21)c1cc(COc2c(F)cccc2F)on1	-1	i	0	-7	6	0	0	-5
Cc1ccc(C)c(N(CC(=O)NCC2CCCO2)C(=O)CCC(=O)Nc2nccs2)c1 (stereo unspecified)	-9	nt	2	1	-16	9	-3	2
CCOc1ccc2nc(Nc3nc(CSc4nnnn4-c4ccccc4)cc(=O)[nH]3)nc(C)c2c1	22	i	8	-11	-138	4	4	-3
COc1ccc(-c2c3c(=O)n(C)c(=O)n(C)c3cn2C2CCCCC2)cc1	-3	i	7	4	-37	8	-1	-3
Cn1c(=O)c(=O)n(C)c2cc(S(=O)(=O)NCCc3ccccc3)ccc21	-17	i	9	-13	-65	5	-1	3
O=C(NCc1ccc(Cl)cc1)C(=O)NCC1OCCCN1S(=O)(=O)c1cccs1 (stereo unspecified)	-1	i	-10	-8	-29	2	1	-4
CCn1cc(C(=O)O)c(=O)c2cnc(N3CCN(C(=S)NC(=O)c4ccc(OC)cc4)CC3)nc21	7	i	5	-10	17	0	-9	-3
CCC(C)Sc1ccc(-c2nc3cc(C)ccn3c2NC2CCCCC2)cc1 (stereo unspecified)	nt	nt	nt	-10	17&-11	nt	-68&-3	-24&-27
